ID4 binder – binders of human ID4 protein, primary screen, biochemical, small molecule microarray, single point; DNA-binding protein inhibitor ID-4 (Homo sapiens), P47928; Flag-ID4 binding, fluorescence F/B; calls only; actives 1.2% (n = 31,000); AID 624137, 2012;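 active = spot signal over background at p below 0.07 in all four prints; compounds were printed on slides so no solution concentration is given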;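 also: a binder raises fluorescence above local background on the spot; about 2 pmol printed per array spot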
Target sequence (P47928 whole entry, looked up): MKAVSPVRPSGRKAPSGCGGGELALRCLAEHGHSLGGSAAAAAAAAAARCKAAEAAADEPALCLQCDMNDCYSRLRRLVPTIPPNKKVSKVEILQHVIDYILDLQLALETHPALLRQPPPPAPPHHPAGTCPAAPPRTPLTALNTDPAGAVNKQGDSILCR
Calls only; i = inactive; + = active, no number.

The first four compounds (preview)
mol	ID4 binder
COc1ccnc(CS(=O)c2nc3ccc(OC(F)F)cc3[nH]2)c1OC (centres undefined)	i
CCc1ccccc1NC(=O)CCC(=O)O	i
COc1cc(-c2nnc(SCC(=O)c3cccc([N+](=O)[O-])c3)n2-c2ccccc2)cc(OC)c1OC	i
C/C=C/c1ccc2c(c1)O[C@H](CN(C)C(=O)CC1CC1)[C@H](C)CN([C@H](C)CO)S2(=O)=O	i

The list itself, from the first entry:
mol	ID4 binder
COc1ccnc(CS(=O)c2nc3ccc(OC(F)F)cc3[nH]2)c1OC (centres undefined)	i
CCc1ccccc1NC(=O)CCC(=O)O	i
COc1cc(-c2nnc(SCC(=O)c3cccc([N+](=O)[O-])c3)n2-c2ccccc2)cc(OC)c1OC	i
C/C=C/c1ccc2c(c1)O[C@H](CN(C)C(=O)CC1CC1)[C@H](C)CN([C@H](C)CO)S2(=O)=O	i
C[C@@H]1CN([C@@H](C)CO)S(=O)(=O)c2ccc(-c3cccc(C#N)c3)cc2O[C@@H]1CN(C)Cc1cccc(F)c1	i
Cc1oc(C(C)(C)C)cc1C(=O)C(C#N)=C1SCCS1	i
CN(CC(=O)Nc1cccnc1)S(=O)(=O)c1ccc2ccccc2c1	i
CCc1cccc(C)c1NC(=O)CSc1nnc(-c2ccc(OC)cc2)o1	i
COc1ccc2c(c1OC)OC[C@@H](c1ccc(OC)c(OC)c1OC)C2	i
Cc1ccc(C(=O)c2oc3ccccc3c2NC(=O)c2cc3ccccc3oc2=O)cc1F	i
CS(=O)(=O)N(CC(=O)Nc1cc(Cl)cc(Cl)c1)c1cccc(Cl)c1	i
Cc1nc(CSc2ncnc3sc4c(c23)CCCCC4)cs1	i
Cc1ccc(C(=O)O)cc1NC(=O)COc1ccc(C(C)(C)C)cc1	i
O=C(C[C@H]1C=C[C@@H](NC(=O)c2cccc(F)c2)[C@H](CO)O1)Nc1nccs1	i
CCOC(=O)c1c(NC(=O)CN2C(=O)COc3ccc(Cl)cc32)sc2c1CCCC2	i
C[C@@H]1CN([C@@H](C)CO)C(=O)c2cc(-c3cccc(C#N)c3)cnc2O[C@H]1CN(C)C	i
C[C@H]1CN([C@@H](C)CO)C(=O)c2cc(-c3cccc(C(=O)N(C)C)c3)cnc2O[C@H]1CN(C)S(=O)(=O)c1ccccc1	i
C[C@@H]1CN([C@@H](C)CO)C(=O)c2cc(C#CCN(C)C)cnc2O[C@H]1CN(C)Cc1ccccc1	i
CC(C)C#Cc1cnc2c(c1)C(=O)N([C@H](C)CO)C[C@@H](C)[C@@H](CN(C)C(=O)CC1CC1)O2	i
CS(=O)(=O)N(CC(=O)Nc1cc(Cl)ccc1Oc1ccccc1)c1cc(Cl)ccc1Cl	i
O=C(O)CCc1nn2c3ccccc3n(CC(=O)c3cccs3)c2nc1=O	i
COc1cc(C(C)=O)ccc1OCC(O)Cn1nc(C)c(Br)c1C (centres undefined)	i
CNC[C@@H]1Oc2ncc(C#Cc3cccc(OC)c3)cc2C(=O)N([C@@H](C)CO)C[C@@H]1C	i
CO[C@H](CN(C)C(=O)c1ccc2c(c1)OCO2)[C@H](C)CN([C@H](C)CO)S(=O)(=O)c1ccc(C)cc1	i
C[C@H](CO)N1C[C@H](C)[C@H](CN(C)C)Oc2cc(C#Cc3cccc(F)c3)ccc2S1(=O)=O	i
CC(C)(C)Nc1nc(SCC(N)=O)nc(N2CCOCC2)n1	i
COCC#Cc1cnc2c(c1)C(=O)N([C@@H](C)CO)C[C@@H](C)[C@@H](CN(C)Cc1ccccc1F)O2	i
CC(=O)N[C@H]1C=C[C@H](CC(=O)NCc2ccc(Cl)cc2)O[C@H]1CO	i
Cc1cccc(-c2nnc(SCC(=O)Nc3c(C)cc(I)cc3C)o2)c1	i
CO[C@H](CN(C)C(=O)Nc1ccc(C(F)(F)F)cc1)[C@@H](C)CN(Cc1ccccc1Cl)[C@H](C)CO	i

Given field by field: 4 of the compounds above.
COc1cc(C(C)=O)ccc1OCC(O)Cn1nc(C)c(Br)c1C (centres undefined)
  ID4 binder: i
Cc1nc(CSc2ncnc3sc4c(c23)CCCCC4)cs1
  ID4 binder: i
CS(=O)(=O)N(CC(=O)Nc1cc(Cl)cc(Cl)c1)c1cccc(Cl)c1
  ID4 binder: i
C[C@H]1CN([C@@H](C)CO)C(=O)c2cc(-c3cccc(C(=O)N(C)C)c3)cnc2O[C@H]1CN(C)S(=O)(=O)c1ccccc1
  ID4 binder: i

(cont.)
mol	ID4 binder
COc1ccc(C2CC(=O)c3cnc(NCCN4CCOCC4)nc3C2)cc1 (centres undefined)	i
CCN(CC(=O)Nc1ccc(F)c(Cl)c1)S(=O)(=O)c1ccc(C)cc1	i
COc1cc2c(cc1NC(=O)CN(C)S(=O)(=O)c1ccc(Cl)cc1)oc1ccccc12	i
CCCN(C)C[C@@H]1Oc2cc(C#CC(C)C)ccc2S(=O)(=O)N([C@@H](C)CO)C[C@H]1C	i
CCC(=O)N(C)C[C@H]1Oc2ncc(-c3ccc(C)cc3)cc2C(=O)N([C@@H](C)CO)C[C@H]1C	i
CC(N=Cc1nc2ccccc2n1C)C12CC3CC(CC(C3)C1)C2 (centres undefined)	i
Cc1ccccc1-c1cnc2c(c1)C(=O)N([C@@H](C)CO)C[C@@H](C)[C@H](CN(C)Cc1ccccc1F)O2	i
Cc1cc(Cl)cc(Cl)c1OCC(=O)Nc1cccc(NC(=O)c2ccccc2Cl)c1	i
Cc1cccc(-n2c(SCC(=O)O)nc3sc4c(c3c2=O)CCCC4)c1	i
O=C(CSc1ncc(-c2ccccc2)nn1)Nc1ccc(I)cc1	i
COc1cc2c(cc1NC(=O)CN(C)S(=O)(=O)c1ccc(Br)cc1)oc1ccccc12	i
COC(=O)c1ccc(C(=O)OC)c(NC(=O)CCc2ccc(C)o2)c1	i
CN(c1ccc(C(=O)NCc2ccccn2)cc1)S(C)(=O)=O	i
O=C(Nc1ccc(Cl)cc1)Nc1ccccc1C(=O)NCc1ccco1	i
Cn1nnnc1SCC(=O)Nc1ccc(I)cc1	i
O=C(C[C@H]1C=C[C@@H](NC(=O)CC2CC2)[C@@H](CO)O1)NCc1ccc(Cl)cc1	i
COc1ccc(-c2nnc3c4ccccc4c(C)nn23)cc1S(=O)(=O)NCc1cccnc1	i
COc1ccc(OC)c(NC(=O)Cn2c(=O)oc3ccccc32)c1	i
CCCN(C)C[C@@H]1Oc2cc(-c3ccccc3C)ccc2S(=O)(=O)N([C@@H](C)CO)C[C@@H]1C	i
O=C(COc1ccc(Cl)cc1C1C2=C(CCCC2=O)NC2=C1C(=O)CCC2)Nc1ccc(Cl)cc1	i
O=C(CSc1nc2ccccc2[nH]1)Nc1ccc(Cl)cc1O	i
C[C@H]1CN([C@@H](C)CO)C(=O)c2cc(C3=CCCCC3)cnc2O[C@H]1CN(C)C(=O)c1ccc(F)cc1	i
COC(=O)c1ccccc1NC(=O)Cn1c([N+](=O)[O-])cnc1C	i
CC(Oc1ccc(C(C)(C)C)cc1)c1nc(-c2cccnc2)no1 (centres undefined)	i
C[C@H]1CN([C@@H](C)CO)C(=O)c2ccccc2-c2ccccc2CO[C@@H]1CN(C)S(=O)(=O)c1ccccc1F	i
COC(=O)c1c(N)oc2c(-c3cccc(C(F)(F)F)c3)c3c(C(=O)OC)c(N)oc3cc12	i
CN(C(=S)SCc1ccccc1)c1ccccc1	i
O=C(Cn1cnc2ccccc2c1=O)Nc1ccc(Br)cc1F	i
O=C(CS(=O)(=O)c1ccccc1)Nc1ccccc1O	i
O=C(NCc1cccnc1)c1cc(-c2ccccn2)nc2c(Cl)cccc12	i

New compounds follow.
Compound	ID4 binder
COC(=O)CN(c1cccc(C)c1)S(=O)(=O)c1ccc(Cl)c(Cl)c1	i
Cc1ccc(-c2cc(C(F)F)n3ncc(C(=O)NCc4cn(C)nc4C)c3n2)cc1	i
C[C@H]1CN([C@@H](C)CO)C(=O)c2cc(-c3cccc(F)c3)cnc2O[C@@H]1CN(C)Cc1cccnc1	i
N#C/C(=C(\O)COc1ccccc1)c1nc2ccccc2[nH]1	i
COCC(=O)Nc1ccc2c(c1)[C@H]1C[C@@H](CC(=O)NCc3cccnc3)O[C@H](CO)[C@H]1O2	i
CC(C)=CCc1c(O)cc(O)c2c1O[C@H](c1ccccc1)CC2=O	i
O=C(CSc1nc2ccccc2c(=O)n1-c1ccccc1)Nc1ccc(F)c(Cl)c1	i
O=C(C[C@@H]1C[C@H]2c3cc(NS(=O)(=O)c4ccc(F)cc4)ccc3O[C@H]2[C@H](CO)O1)NCc1ccccn1	i
COc1ccc([N+](=O)[O-])cc1NC(=O)CCSc1ccc(C)cc1	i
C[C@H](CO)N1C[C@H](C)[C@@H](CN(C)CC2CCCC2)Oc2ncc(C#Cc3ccccn3)cc2C1=O	i
Cc1ccccc1CN(C)C[C@H]1OCc2cnnn2CCCC(=O)N([C@H](C)CO)C[C@@H]1C	i
c1ccc(COc2ccc(Oc3nc(N4CCCCC4)nc(N4CCOCC4)n3)nn2)cc1	i
C[C@H]1CN([C@@H](C)CO)C(=O)c2cc(C#CCN(C)C)cnc2O[C@@H]1CN(C)S(=O)(=O)c1cn(C)cn1	i
O=C(CCC(=O)c1ccc(F)cc1)Nc1cccnc1	i
COc1ccc(NC(=O)N(C)C[C@@H]2Oc3cc(-c4ccncc4)ccc3S(=O)(=O)N([C@H](C)CO)C[C@H]2C)cc1	+
CN(Cc1nc(-c2cccnc2)no1)S(=O)(=O)c1ccc(Br)cc1	i
COC(=O)c1cc(C)sc1NC(=S)NCCc1ccccc1OC	i
O=C(CSc1ncnc2sc3c(c12)CCCCC3)Nc1ccc2c(c1)OCCO2	i
COCC(=O)N[C@@H]1CC[C@H](CC(=O)NCc2ccccc2OC)O[C@H]1CO	i
CCC(=O)N(C)C[C@H]1Oc2ncc(C3=CCCC3)cc2C(=O)N([C@H](C)CO)C[C@H]1C	i
O=S(=O)(NCc1csc2ccc(Cl)cc12)c1cc(S(=O)(=O)c2ccccc2)cs1	i
O=C(NCCCN=C1NS(=O)(=O)c2ccccc21)c1ccco1	i
COc1ccccc1NC(=O)C(Cc1ccccc1)N1C(=O)C2C3C=CC(C3)C2C1=O (centres undefined)	i
CC1(C)CC(=O)C2=C(C1)N(Cc1cccnc1)C(=O)C2(NC(=O)c1ccc(Cl)cc1Cl)C(F)(F)F (centres undefined)	i
O=C(NCc1cc2ccccc2[nH]1)c1cc(-c2ccccn2)nc2ccc(Br)cc12	i
O=C1C[C@@](C(=O)NCCN2CCOCC2)(c2ccc([N+](=O)[O-])cc2)[C@@H](c2ccc(CO)cc2)N1CC12CC3CC(CC(C3)C1)C2	i
C[C@@H]1CN([C@H](C)CO)C(=O)c2cc(-c3ccc(C#N)cc3)cnc2O[C@H]1CN(C)C(=O)CC1CC1	i
CO[C@@H](CN(C)C(=O)C1CCOCC1)[C@@H](C)CN([C@H](C)CO)S(=O)(=O)c1ccccc1	i
O=C(CSc1ncnc2sc3c(c12)CCCCC3)NCC1CCCO1 (centres undefined)	i
CS(=O)(=O)N(CC(=O)Nc1ccc(F)c(F)c1)c1ccc(Cl)c(C(F)(F)F)c1	i
COc1cc(C(C)=O)ccc1OCC(O)Cn1nc(C)c(C(C)=O)c1C (centres undefined)	i
C[C@@H]1CN([C@@H](C)CO)C(=O)c2cc(-c3ccccc3F)cnc2O[C@H]1CN(C)Cc1cccc(F)c1	i
C[C@@H]1CN([C@@H](C)CO)C(=O)c2ccccc2-c2ccccc2CO[C@@H]1CN(C)Cc1ccc2c(c1)OCCN2C	i
CN(CC(=O)Nc1ccccc1[N+](=O)[O-])S(=O)(=O)c1ccc(Br)cc1	i
Cc1c(Br)c([N+](=O)[O-])nn1C(C)C(=O)NCc1ccco1 (centres undefined)	i
C[C@H](CO)N1C[C@H](C)[C@H](CN(C)S(=O)(=O)c2ccccc2C#N)OCc2ccccc2-c2ccccc2C1=O	i
COc1ccc(C(C)C)cc1S(=O)(=O)n1cnc2cc(C)c(C)cc21	i
CC(=O)N[C@@H]1CC[C@H](CC(=O)NCC2CCCCC2)O[C@H]1CO	i
O=C(N[C@H]1C=C[C@H](CC(=O)N2CCC(Cc3ccccc3)CC2)O[C@@H]1CO)c1cnccn1	i
Cn1c(-c2cc(Br)cs2)nc(=O)c2cc(Cl)ccc21	i
CC(=O)c1cccc(NC(=O)Cn2cnc3c2c(=O)n(C)c(=O)n3C)c1	i
O=C(NCC[C@@H]1CC[C@@H](NC(=O)C2CCCC2)[C@@H](CO)O1)c1cc(Cl)cc(Cl)c1	i
C[C@H]1CN([C@@H](C)CO)C(=O)c2ccccc2-c2ccccc2CO[C@@H]1CN(C)C(=O)CCN(C)C	i
COc1ccc(-n2c(C)nnc2SCC(=O)Nc2ccc(F)c(Cl)c2)cc1	i
O=C(C[C@H]1CC[C@@H](NS(=O)(=O)c2ccccc2)[C@H](CO)O1)NCCN1CCCCC1	i
C[C@@H]1CN([C@H](C)CO)C(=O)c2cc(-c3ccc(F)cc3)cnc2O[C@@H]1CN(C)Cc1cccnc1	i
CO[C@@H](CN(C)Cc1cc(F)ccc1F)[C@@H](C)CN([C@H](C)CO)S(=O)(=O)c1ccc(F)cc1	i
O=C(CSc1nnc(-c2cccnc2)n1-c1ccccc1)Nc1cc(C(F)(F)F)ccc1Cl	i
COc1ccc(OC)c(NC(=O)C(C)N2c3cccc4cccc(c34)S2(=O)=O)c1 (centres undefined)	i
C[C@H]1CN([C@@H](C)CO)C(=O)c2cc(-c3cccnc3)cnc2O[C@@H]1CN(C)Cc1ccccc1	i
COc1cc(NC(=O)COc2cc(C)c(Cl)c(C)c2)c(C(=O)O)cc1OC	i
Cc1ccc(S(=O)(=O)NC(C)C(=O)Nc2ccc(F)c(Cl)c2)cc1 (centres undefined)	i

From PubChem BioAssay

These rows are one share of the data. The share of hits here may be higher or lower than overall.
